# HNF4A DNA FP: change in binding of human HNF4 alpha to DNA; HNF4a-FITC DNA binding, fluorescence polarization, 1 h; activity change, % at 10 µM; hit rate 0.3% among 360,000; AID 1224865; in the data active means activity change above about 30%, passing the limit was not always enough;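 further: controls were the assay level and a saturating level of protein; the project sought stronger binding though the title names inhibitors; some compounds called inactive have numbers as strong as hits; positive values seem to mean higher polarization but the record does not say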
# FGF22 binding: FGF22 (human) thermal shift binding; Q9HCT0; recombinant FGF22 thermal shift, SYPRO orange fluorescence; percent of sucrose octasulfate shift, DMSO zero; calls only at 9.99 µM; hit rate 1.5% among 340,000;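 active means melting point raised past a set limit in the mean and every replicate; three in four hits are not shown here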
# UCH37 inh: blocks the human deubiquitinase UCH37 | Q9Y5K5 | purified proteasome/UCH37, Ub-AMC cleavage fluorescence | inhibition, % (test concentration not listed) | hit rate 0.33% among 330,000 | AID 588478;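 active means mean of two replicates above 20%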;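 further: 0% = compound-free wells with enzyme and 100% = wells lacking proteasome; stock transfer was 100 nL into about 20 µL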
# Target sequence (Q9Y5K5 whole entry, looked up): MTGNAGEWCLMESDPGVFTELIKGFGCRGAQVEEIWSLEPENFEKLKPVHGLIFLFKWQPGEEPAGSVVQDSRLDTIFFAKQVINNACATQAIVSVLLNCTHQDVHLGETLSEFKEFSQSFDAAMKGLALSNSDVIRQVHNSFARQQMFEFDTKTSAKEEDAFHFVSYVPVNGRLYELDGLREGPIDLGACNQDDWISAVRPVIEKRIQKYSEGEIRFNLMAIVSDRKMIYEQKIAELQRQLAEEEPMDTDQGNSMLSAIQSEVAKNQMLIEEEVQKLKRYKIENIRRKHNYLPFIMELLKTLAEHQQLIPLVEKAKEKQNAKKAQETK
#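 Test system – human UCH37 enzyme supplied as purified proteasome complex · Incubation – 30 min preincubation with enzyme, 25 min cleavage at room temperature · Detection – AMC fluorescence from Ub-AMC cleavage, excitation 355 nm, emission 460 nm · Benchmarks – no-proteasome wells (full inhibition) and compound-free wells (no inhibition)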
# rRNA inh HTS: inhibitors of bacterial rRNA selective over humanized ribosomes. E. coli WT GFP vs humanized-ribosome RFP mutants, fluorescence, 24 h; hits give low values; DMSO median 0, no signal -100. GFP signal change (wild-type ribosome), % (no concentration beside the values). hit rate 1.6% among 350,000. AID 720706;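 active means significant combined selectivity score with lowered wild-type GFP, culture density cut under 30%, mutant RFP and density less affected; inactive means any of these conditions unmet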; further: one replicate is shown; some compounds called inactive have numbers as strong as hits
# ALR H2O2 inh: human ALR oxidase inhibition via reduced H2O2 | P55789 | hit rate 3.8% among 290,000 | AID 485317 | purified ALR, DTT oxidation, H2O2 HRP-luminol luminescence | inhibition, % (test concentration not listed);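 active means mean and each replicate at 75% or more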;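 further: stock transfer was 7.5 nL into about 7.5 µL; 0% = neutral wells and 100% = wells with inactivated enzyme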
# Target sequence (P55789 whole entry, looked up): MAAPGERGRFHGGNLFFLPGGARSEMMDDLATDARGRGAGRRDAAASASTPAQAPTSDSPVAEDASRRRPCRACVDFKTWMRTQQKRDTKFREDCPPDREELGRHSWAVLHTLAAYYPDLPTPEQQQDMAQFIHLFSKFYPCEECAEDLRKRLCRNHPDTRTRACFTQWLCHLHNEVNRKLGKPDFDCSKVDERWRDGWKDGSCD
# E coli growth: blocks Escherichia coli growth; OD600, 23 h; hits give low values; OD600 absorbance (test concentration not listed); hit rate 0.21% among 330,000;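 active means OD600 absorbance below the run mean of sample wells minus 3.6 SD, in any replicate, cut at about 0.56 in these data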;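 further: stock transfer was 300 nL into about 60 µL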
# B2AR ag: agonists of human beta-2 adrenergic receptor inducing internalization. AID 504454. hit rate 0.43% among 340,000. Am2.2-beta2AR cells, FAP receptor internalization, flow cytometry; reference of the scale not given here. response, % (no concentration beside the values);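 active means response above a set limit, near 3 SD of response in nonfluorescent compounds, cut at about 42% in these data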;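 further: stock transfer was 100 nL into about 11 µL; a reference agonist was the positive control; negative values mostly stem from fluorescent compounds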
# Target sequence (P07550 whole entry, looked up): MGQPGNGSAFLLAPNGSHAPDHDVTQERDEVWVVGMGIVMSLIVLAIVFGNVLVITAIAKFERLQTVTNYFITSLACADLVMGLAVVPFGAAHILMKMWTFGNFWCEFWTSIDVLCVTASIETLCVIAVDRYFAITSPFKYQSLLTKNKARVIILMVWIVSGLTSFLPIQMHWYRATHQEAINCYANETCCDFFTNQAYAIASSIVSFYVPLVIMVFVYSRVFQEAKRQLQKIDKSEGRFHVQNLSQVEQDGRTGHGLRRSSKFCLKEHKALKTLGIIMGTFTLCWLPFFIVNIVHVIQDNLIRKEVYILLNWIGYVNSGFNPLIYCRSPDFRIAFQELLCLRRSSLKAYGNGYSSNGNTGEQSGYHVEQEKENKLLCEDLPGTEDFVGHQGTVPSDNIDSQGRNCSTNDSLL
# rRNA inh HTS OD600: recorded beside rRNA inh HTS, whose call it bears; OD600 change, %; measured here: OD600 growth;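 optical density of the mix in the first replicate; 0 = DMSO median and -100 = no signal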
# rRNA inh HTS RFP: recorded beside rRNA inh HTS, whose call it bears; RFP signal change, %; measured here: RFP humanized mutant strains;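 first replicate; 0 = DMSO median and -100 = no signal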
# Starred values were filed as active, the others as inactive; i = inactive; . = not tested or not shown; & = joins results of further samples.
SMILES,HNF4A DNA FP,FGF22 binding,UCH37 inh,rRNA inh HTS,rRNA inh HTS OD600,rRNA inh HTS RFP,ALR H2O2 inh,E coli growth,B2AR ag
CCc1ccc(NC(=O)CS(=O)CC(=O)Nc2ccc(F)cc2F)cc1 (configuration not stated),1.4,.,5.3,.,.,.,-12,0.66,8
CN(CC(=O)NCc1ccc(F)cc1)Cc1ccc(Br)cc1,0.5,i,1.6,3,3,1.1,-4,0.61,-11
COc1ccc(CNC(=O)C/C(C)=N/NC(=O)COc2cccc(C)c2)cc1,0.3,i,.,5,5,-2.5,-1,.,6
COc1ccc(-c2nc(NC(=O)C3CCN(c4nc5ccccc5o4)CC3)sc2C)cc1,-4.3,.,4.5,.,.,.,.,0.75,4
O=C(CCNC(=O)N1CC(=O)Nc2ccccc21)NCc1ccc(F)cc1,-2.5,i,4.4,1,8,-3.5,-2,0.69,-1
S=c1nc(-c2ccccc2)n(CCN2CCOCC2)c2c1CCCC2,1.5,.,11,.,.,.,-2,0.72,18
CN(Cc1ccccc1)C(NC(=O)c1ccccc1)C(Cl)(Cl)Cl (configuration not stated),-1.9,.,3.3,.,.,.,.,0.73,21
O=C(Nc1ccccc1NC(=O)c1ccccc1Cl)c1ccccc1Cl,3.8,i,1.4,-5,5,-9.5,-4,0.71,3
COc1ccc(-c2cn3cccnc3n2)cc1NC(=O)C(C)C,4.2,i,-50,.,.,.,-4,.,-18
Cc1ccc(Cl)c(NC(=O)COC(=O)C2CCC2)c1Cl,-4.8,i,1.8,18,16,-1.7,6,0.71,-3
CN1CCC(OC(=O)COc2ccc(Cl)cc2Cl)CC1,1.1,i,2.3,10,2,4.3,-11,0.7,-1
CCCCN(CCCNC(=O)CN1C(=O)COc2ccccc21)c1ccccc1,-3.1,.,3.3,.,.,.,65,0.67,7
O=C1CCC([N+](=O)[O-])C(c2cc3c(cc2Cl)OCO3)N1 (configuration not stated),0.2,.,5.9,.,.,.,.,0.62,4
O=C(NC1CCN(C(=O)Nc2ccccc2)CC1)C1CCCCC1,-0.8,.,2.3,.,.,.,.,0.73,7
CCOC(=O)c1c(C)oc2cc(Br)c(OCC(N)=O)cc12,0.0,.,2.9,.,.,.,-2,0.68,20
COc1ccc([C@H]2[C@H](C(=O)C(C)(C)C)N3N=Cc4ccccc4C3[C@]23N=C(c2ccccc2)OC3=O)cc1OC (some centres not stated),0.4,.,1.1,.,.,.,-11,0.68,-18
O=C1NC(Cc2ccc(O)cc2)c2nc3ccc(Br)cc3c(=O)n2-c2ccc(Cl)cc21 (configuration not stated),.,i,.,8,14,3.1,5,.,.
O=C(NC1(C(F)(F)F)NC(=O)N(Cc2cccnc2)C1=O)c1cccs1 (configuration not stated),3.4,.,2.3,.,.,.,-1,0.77,-2
COc1ccc(S(=O)(=O)N2CCN(C3CCCC(C)C3)CC2)cc1 (configuration not stated),-1.3,i,4.9,5,-18,-0.7,.,0.69,-3
CCOC(=O)c1sc(N)c(C(=O)OCC)c1COC(=O)C1CC(=O)N(Cc2ccco2)C1 (configuration not stated),0.5,.,0.3,.,.,.,.,0.83,2

# Pulled one by one from above, 6 records:
SMILES,HNF4A DNA FP,FGF22 binding,UCH37 inh,rRNA inh HTS,rRNA inh HTS OD600,rRNA inh HTS RFP,ALR H2O2 inh,E coli growth,B2AR ag
O=C(NC1CCN(C(=O)Nc2ccccc2)CC1)C1CCCCC1,-0.8,.,2.3,.,.,.,.,0.73,7
COc1ccc(-c2nc(NC(=O)C3CCN(c4nc5ccccc5o4)CC3)sc2C)cc1,-4.3,.,4.5,.,.,.,.,0.75,4
O=C(CCNC(=O)N1CC(=O)Nc2ccccc21)NCc1ccc(F)cc1,-2.5,i,4.4,1,8,-3.5,-2,0.69,-1
CCOC(=O)c1sc(N)c(C(=O)OCC)c1COC(=O)C1CC(=O)N(Cc2ccco2)C1 (configuration not stated),0.5,.,0.3,.,.,.,.,0.83,2
O=C(Nc1ccccc1NC(=O)c1ccccc1Cl)c1ccccc1Cl,3.8,i,1.4,-5,5,-9.5,-4,0.71,3
O=C(NC1(C(F)(F)F)NC(=O)N(Cc2cccnc2)C1=O)c1cccs1 (configuration not stated),3.4,.,2.3,.,.,.,-1,0.77,-2

# Later entries.
SMILES,HNF4A DNA FP,FGF22 binding,UCH37 inh,rRNA inh HTS,rRNA inh HTS OD600,rRNA inh HTS RFP,ALR H2O2 inh,E coli growth,B2AR ag
CCc1cc(=O)oc2c(C)c(OCC(=O)NCc3ccccn3)ccc12,6.7,i,-4.9,2,8,-0.5,-1,0.71,7
Cc1ccc(NC(=O)Cn2nc(C)c3ccccc3c2=O)c(C)c1,3.3,.,-1.1,10,10,2.0,-5,0.65,4
CCOc1cccc(C(=O)Nc2ccccc2C(=O)N2CCOCC2)c1,6.6,i,1.1,4,-1,-2.4,-10,0.7,-25
CC(C)c1onc(C(=O)NC(C)c2ccccc2)c1[N+](=O)[O-] (configuration not stated),0.0,i,0.2,3,3,1.5,-21,0.73,5
COc1cccc(C2C3=C(CCCC3=O)NC3=C2C(=O)c2ccccc23)c1 (configuration not stated),.,.,2.2,.,.,.,-2,0.7,.
CCOC(=O)Cc1[nH]nc2c1C(C1C=CCCC1)C(C#N)=C(N)O2 (configuration not stated),-1.6,.,3.6,.,.,.,-2,0.74,9
CCOC(=O)c1ccc(N2C(=O)c3n[nH]c(-c4ccco4)c3C2c2ccc([N+](=O)[O-])cc2)cc1 (configuration not stated),3.1,.,-1.2,.,.,.,-11,.,-5
Cn1c(=O)c2c(SCC(=O)N3CCN(c4ccccc4)CC3)nc(C3CC3)nc2n(C)c1=O,-0.3,i,-5.8,-3,4,-1.5,.,0.75,8
CCCN1CCN(C(=O)CCn2c(=O)c3cccn3c3cccnc32)CC1,-0.4,i,-1.9,6,8,0.4,3,0.64,-7
O=C(NNC(=O)c1ccc2nc[nH]c2c1)c1ccccc1,1.0,i,3.6,5,9,-1.7,-6,0.72,-3
COc1ccccc1N1CCN(S(=O)(=O)c2ccc(Cl)cc2)CC1,-4.9,i,4.5,-11,-24,-5.7,.,0.68,12
c1ccc(CNC2=NCCC2)nc1,-1.9,.,2.1,.,.,.,-23,0.74,-3
Cc1cc(C)cc(OC(C)C(=O)Nc2ccc(S(=O)(=O)Nc3cc(C)nc(C)n3)cc2)c1 (configuration not stated),-4.0,.,1.2,.,.,.,0,0.7,-5
COc1cc(C(=O)Nc2ccc(C)cn2)ccc1OCC(=O)N1CCOCC1,-0.6,i,-0.9,.,.,.,18,0.67,2
CC1CCN(CC(O)COCCOc2ccc(Br)cc2)CC1 (configuration not stated),-0.1,.,2.4,.,.,.,-2,0.7,3
O=S(=O)(c1ccc(OCC(O)CN2CCC(Cc3ccccc3)CC2)cc1)N1CCOCC1 (configuration not stated),-1.3,i,1.3,5,-2,-4.9,-6,0.69,6
CCC(Sc1nc2cc(OC)c(OC)cc2c(=O)n1CCc1ccc(S(N)(=O)=O)cc1)C(=O)NCCOC (configuration not stated),2.9,i,0.7,-4,-3,9.9,-1,0.66,-5
CCOc1cc(CNc2ccc3c(c2)CCC3)ccc1O,-0.7,.,4.7,.,.,.,-11,0.74,5
O=C1C(Cl)=C(Oc2ccccc2)C(=O)c2ccccc21,0.2,i,74*,.,.,.,.,0.7,31
CC(C)(C)NC(=O)COc1ccccc1C#N,2.9,i,-0.7,16,11,3.5,-7,0.66,-4
CCCCCCSc1ccc([C@@H]2[C@H]3C(=O)N(C)C(=O)[C@H]3[C@]3(C(=O)OC)CCCCN23)cc1,14,i,0.9,-2&6,-11&7,5.2&6.0,2,.,5
CCCCN(C(=O)c1ccncc1)c1c(N)n(CCC)c(=O)[nH]c1=O,4.4,i,1.7,.,.,.,-1,0.68,-1
O=C(O)CCC(=O)Nc1sc2c(c1C(=O)NC1CCCC1)CCCC2,2.5,i,-1.4,-7,-3,-7.9,7,0.69,-8
CC(=O)Nc1ccc(-c2nc3ccc(NC(C)=O)cc3o2)cc1,2.3,i,i,-5,5,1.1,7,0.66,-5
COc1ccc(/C=C/c2nc3ccccc3n2Cc2ccc(OC)c(OC)c2)cc1,1.0,i,-33,-20,-15,12,-14,0.75,-10
N#Cc1cnc2c(-c3ccccc3)c(-c3ccccc3)nn2c1N,3.0,i,1.1,-8,-6,-1.9,-6,0.72,-7
Cc1ccc(S(=O)(=O)NC(=O)C2(C)CCN2C(=O)Cc2ccc(C(C)(C)C)cc2)nc1 (configuration not stated),-4.0,i,.,6,-1,0.7,.,.,.
COc1ccc(N2CCN(Cc3nnc(-c4ccccc4)o3)CC2)cc1,-0.8,.,2.6,.,.,.,35,0.7,0
Cc1ccc(C2=[N+]([O-])C3(CCCCC/C3=N\O)N(O)C2(C)C)o1 (configuration not stated),-2.5,.,.,.,.,.,-3,.,-1
CC(C)[C@H]1CN=C2N(C[C@H](C)NC(=O)CCC3CCCCC3)[C@H](Cc3ccc(O)cc3)CN21,26,i,0.3,.,.,.,.,.,0
CN(CC(=O)Nc1ccc(F)cc1[N+](=O)[O-])C1CCS(=O)(=O)C1 (configuration not stated),2.0,i,1.2,4,10,0.6,-3,0.69,6
Cc1cc2nc(C(C)(C)C)c(Cc3ccsc3)n2c(C)c1Br,4.8,i,.,7,16,13,.,.,.
O=C(CCS(=O)(=O)c1cccc2nonc12)NCc1ccc(Cl)cc1,-6.3,i,1.7,-1,6,1.0,-4,0.72,-3
C=CCN(CC=C)S(=O)(=O)c1ccc2nc(NC(=O)C(C)C)sc2c1,0.1,.,6.1,.,.,.,-4,0.72,15
CC(=O)N1CCCc2cc(S(=O)(=O)N3CCCC(C(=O)NCc4ccccc4Cl)C3)ccc21 (configuration not stated),1.1,i,0.2,-8,-14,5.2,-3,0.65,3
Cc1ccc(NC(=O)c2ccc(S(=O)(=O)N3CCC(C)CC3)cc2)nc1,-4.1,i,-1.6,5,10,-1.7,.,0.63,-1
CC(C)C(=O)Nc1cccc(NC(=O)c2ccc([N+](=O)[O-])cc2Cl)c1,3.2,i,4.5,16,17,3.5,.,0.67,-5
CCN(CC(=O)Nc1ccccc1OC)C(=O)CSCc1ccc(C)cc1,4.4,i,4.2,-10,-19,-0.1,-3,0.7,0
O=C(COc1ccc(Br)cc1Br)NC(=S)Nc1cccc(CO)c1,2.8,.,4.6,.,.,.,.,0.71,-7
COCCN1CC(O)=C(c2nc3ccccc3c(=O)[nH]2)C1=N,1.9,.,-49,.,.,.,5,0.73,5
CCOC(=O)C1=C[C@@H](c2ccccc2)N(S(=O)(=O)c2ccc(C)cc2)[C@H]1c1ccc(F)cc1,-0.7,i,.,16,18,-0.9,.,.,.
COCCN1C(=O)c2oc3ccccc3c(=O)c2C1c1cccc(O)c1 (configuration not stated),2.9,i,4.9,2,7,-1.7,-16,0.74,-14
COc1ccccc1CNc1nc2cc(-c3ccc(OC)c(OC)c3)sc2c(=O)n1C,2.0,i,.,-9,5,0.0,.,.,.
COCCOC(=O)c1[nH]c2c(c1C)C(=O)CC(c1cc(OC)ccc1OC)C2 (configuration not stated),3.1,i,2.3,0,0,-2.4,-1,0.76,0

# Printed as active in UCH37 inh, among the entries above:
SMILES,HNF4A DNA FP,FGF22 binding,UCH37 inh,rRNA inh HTS,rRNA inh HTS OD600,rRNA inh HTS RFP,ALR H2O2 inh,E coli growth,B2AR ag
O=C1C(Cl)=C(Oc2ccccc2)C(=O)c2ccccc21,0.2,i,74*,.,.,.,.,0.7,31

# These rows are one share of the data; the hit share may differ from the screen's.
